Source: PubChem (PCMD)
Biofilm kill mix – mixtures killing C. albicans biofilm; inhibition, % at 7.6 µM; AID 1242; hit rate 0.02% among 120,000; C. albicans biofilm persisters + clotrimazole, fluorescence viability; primary screen in compound mixtures of four per well;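 active = inhibition above 30.3% in the primary screen of four-compound pools, then above 30% when the compound was retested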;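 also: compounds exposed to preformed 24 h biofilms for 48 h; the number belongs to the whole pool; some results filed as inactive read as strong as hits; inactives centre near 12; 0% = biofilm with clotrimazole alone and 100% = kill control; retested singly at about 60 µM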
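Probe or stimulus – Clotrimazole 50 µg/mL co-treatment · System – C. albicans biofilms · Schedule – 24 h biofilm formation, then 48 h compound exposure, 37 °C · Evaluation – percent inhibition of biofilm viability · Technique – 2-h Alamar Blue fluorescence, 535/590 nm excitation/emission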
Numbers without * were called inactive. Some of the compounds tested; the hit share may differ from the screen's.

Compound | Biofilm kill mix
Cc1nn(C)cc1C(=O)Nc1c(C)nn(Cc2ccccc2Cl)c1C | 7
O=C(N(c1ccccn1)c1ccccn1)C12CC3CC(CC(Cl)(C3)C1)C2 | 14
COCCCNC(=O)CCc1ccccc1 | 3
Cc1ccc(S(=O)(=O)c2c(C(=O)c3ccccc3)cnc3cc4c(cc23)OCCO4)cc1 | -10
CCn1ccnc1CNC(=O)CC1C(=O)NCCN1CC(c1ccccc1)c1ccccc1 (stereo not given) | 8
CC(C)(C)C1CCC2(CC1)C(Nc1cccc(C(F)(F)F)c1)=NC(=S)N2CC#N (stereo not given) | 9
COc1cc(/C=N/Nc2ncnc3sc4c(c23)CCC4)ccc1O | 17
Cc1ncsc1CCOC(=O)c1ccc([N+](=O)[O-])cc1 | 1
O=C(CNc1cccc2ccccc12)N/N=C/c1ccc([N+](=O)[O-])cc1 | 10
COc1cccc(NC(=S)NCc2ccncc2)c1 | 8
COc1ccc(N(C(=O)c2cc3ccccc3oc2=O)C2C=CS(=O)(=O)C2)c(OC)c1 (stereo not given) | 18
CCCN1CCC(=NNC(=O)CSc2cc(C)c(Br)cc2C)CC1 | 15
COc1ccc(N(C)C(=O)c2cc3c(Cl)nc4ccccc4c3s2)cc1 | 18
O=C(c1cccs1)N1CCN(Cc2ccccc2)CC1 | 4
C/C(=N\NC(=S)NCc1ccccc1)c1ccco1 | 6
COc1cc(C(c2oc(CO)cc(=O)c2O)c2oc(CO)cc(=O)c2O)cc(OC)c1OC | 17
Cc1c(O)cc2n(c1=O)-c1ccccc1C2(C)C | 6
CN=C1C([N+](=O)[O-])=CC=C2C1=NC1(CCCCC1)N2O | 16
Cc1ccc2cc(C#N)c(N3CCN(C)CC3)nc2c1 | 9
CC(C)=CCN1CCN(Cc2nc(-c3ccc(F)cc3)cs2)CC1CCO (stereo not given) | 11

Compound | Biofilm kill mix
Cc1ccccc1CNC(=O)/C=C\C(=O)O | 9
CCOc1cc(C2C3=C(CCCC3=O)Nc3ccc4ncccc4c32)ccc1O (stereo not given) | 11
CC(=O)c1c(C)nn(-c2ccccc2)c1C | 14
Nc1nc(-c2cccnc2)nn1C(=O)c1ccc(F)cc1 | -3
Cn1ccnc1C1CCCCN1C(=O)c1cc(COc2ccc(F)cc2Cl)on1 (stereo not given) | 26
CCn1cc(/C=N\NC(=O)c2ccc(F)cc2)cn1 | -2
Cc1sc2ncnc(N/N=C/c3ccc(O)cc3)c2c1C | 7
CN(C(=O)c1ccc(OC2CCN(S(=O)(=O)N(C)C)CC2)cc1)C1CCCCC1 | 9
O=C1CSC(c2cccc([N+](=O)[O-])c2)N1c1ccc(O)cc1 (stereo not given) | 15
O=C(CCn1cnc(-c2ccccc2)c1-c1ccccc1)N/N=C/c1ccccc1O | 8
Cc1cc(F)c(F)c(C(=O)N2CCOCC2)c1 | 8
O=C(Nc1ccc(F)cc1)c1sc(Cl)nc1-c1ccccc1 | 14
COc1cc(C(=O)NCC(=O)N/N=C/c2cccc(OC(=O)c3ccco3)c2)cc(OC)c1OC | 6
COc1ccc(/C=C/C(=O)NC2CCCCCCC2)cc1S(=O)(=O)N1CCOCC1 | 18
Cc1cccnc1NC(=S)Nc1ccc(F)cc1F | 3
O=C(NCCC(c1ccccc1)c1ccccc1)c1cccs1 | 4
COc1cccc(N=Nc2c(=O)[nH]n3c(=O)c4c([nH]c23)CCC4)c1 | 16
O=C(Cc1ccc(S(=O)(=O)N2CCCC2)s1)N1CCN(c2ccc(F)cc2)CC1 | 19
CCS(=O)(=O)c1nc(S(=O)(=O)c2ccc(Cl)cc2)c(N2CCc3ccccc3C2)s1 | 23
Cc1ccc(NC(=S)N(Cc2ccccc2)C(C)C)cc1 | 12

Part of the list above, field by field.
> CC(C)(C)C1CCC2(CC1)C(Nc1cccc(C(F)(F)F)c1)=NC(=S)N2CC#N (stereo not given)
  Biofilm kill mix: 9
> Cn1ccnc1C1CCCCN1C(=O)c1cc(COc2ccc(F)cc2Cl)on1 (stereo not given)
  Biofilm kill mix: 26

2 consecutive compounds from above, quoted:
Compound | Biofilm kill mix
CCOc1cc(C2C3=C(CCCC3=O)Nc3ccc4ncccc4c32)ccc1O (stereo not given) | 11
CC(=O)c1c(C)nn(-c2ccccc2)c1C | 14

Other results
Compound | Biofilm kill mix
Cc1cc(/C=C2/NC(=O)N(c3ccccc3)C2=O)c(C)n1C(C)C | 11
CC(C)(O)C#Cc1ncc(C(F)(F)F)cc1Cl | 15
Cc1ccc(S(=O)(=O)Nc2ccc(NC(=O)c3cccs3)cc2)cc1 | 9
OC(CNCCC1C=Nc2ccccc21)Cn1c2ccc(Cl)cc2c2cc(Cl)ccc21 (stereo not given) | 13
O=C(O)/C=C/C(=O)NCC1CCC(CNC(=O)/C=C/C(=O)O)CC1 (stereo not given) | -3
CNC(=S)N(CCc1cccc(C)c1)Cc1cc2cc(OC)c(OC)cc2[nH]c1=O | 14
Cc1ncc([N+](=O)[O-])n1Cc1ccc(Cl)cc1 | 13
CN1CCN(C(=O)CCN2C(=O)/C(=C/c3ccccc3Cl)SC2=S)CC1 | 23
CCC(=O)N/N=C(\C)CC(=O)Nc1ccc(F)cc1 | 19
COc1ccc(NC(=O)CCCC(=O)O)cc1Cl | 3
O=[N+]([O-])c1nn(-c2ccccc2)[n+]([O-])c1N1CCN(c2ccccc2)CC1 | 15
Cc1cccc(-n2c(C)nc3cc(C(=O)NCc4ccc5c(c4)OCO5)ccc32)c1 | 12
CCOc1ccc(NC(=O)CSc2nnc(N)s2)c([N+](=O)[O-])c1 | 6
Cc1ccc(S(=O)(=O)N(Cc2ccccc2)c2ccccc2C(=O)Nc2ccccc2C(=O)NCc2ccco2)cc1 | 16
Cc1ccc(C(=O)NC2CCc3ccccc3C2=O)cc1 (stereo not given) | 12
Cc1nn(C)c(Cl)c1CN1CCC(CO)(CCOc2ccccc2)CC1 | 8
CCOc1ncccc1C(=O)N1CCN(C(c2ccccc2)c2ccccc2)CC1 | 17
S=C(Nc1ccccc1)N1CCN(C/C=C/c2ccccc2)CC1 | 24
C/C(=N\N=C1\NC(=O)C(CC(=O)Nc2ccc(C)c(Cl)c2)S1)C(C)C (stereo not given) | 4
CC(C)(C)CC(C)(C)NC(=O)c1ccc2snnc2c1 | 16

Single entries from the entries so far.
Cc1ncc([N+](=O)[O-])n1Cc1ccc(Cl)cc1 in Biofilm kill mix shows 13
Cc1ccc(S(=O)(=O)Nc2ccc(NC(=O)c3cccs3)cc2)cc1 in Biofilm kill mix shows 9
CC(C)(O)C#Cc1ncc(C(F)(F)F)cc1Cl in Biofilm kill mix shows 15
CNC(=S)N(CCc1cccc(C)c1)Cc1cc2cc(OC)c(OC)cc2[nH]c1=O in Biofilm kill mix shows 14
O=C(O)/C=C/C(=O)NCC1CCC(CNC(=O)/C=C/C(=O)O)CC1 (stereo not given) in Biofilm kill mix shows -3
CN1CCN(C(=O)CCN2C(=O)/C(=C/c3ccccc3Cl)SC2=S)CC1 in Biofilm kill mix shows 23
Cc1cccc(-n2c(C)nc3cc(C(=O)NCc4ccc5c(c4)OCO5)ccc32)c1 in Biofilm kill mix shows 12

Carrying on.
Compound | Biofilm kill mix
O=C(/C(=N\Nc1ccc(Br)cc1)Sc1nnnn1-c1ccccc1)c1ccccc1 | 19
Cc1ccc2occ(-c3nn[nH]n3)c(=O)c2c1 | 8
COc1ccc(C(=O)C2CCCN(S(=O)(=O)C(C)C)C2)c(C)c1 (stereo not given) | 9
Cc1ccc2nc(NC(=O)c3ccc(S(=O)(=O)N4CCCc5ccccc54)cc3)sc2c1 | 7
Cc1ccnc(SCc2cc(=O)c(OC(=O)c3cc([N+](=O)[O-])ccc3Cl)co2)n1 | 11
Cc1cc(C)cc(N2C(=O)CC(Sc3ccccc3C(=O)O)C2=O)c1 (stereo not given) | 22
OCCC1CN(Cc2ccc3nsnc3c2)CCN1C1CCCCC1 (stereo not given) | 12
O=C(CSc1nccc(=O)[nH]1)Nc1ccc(S(=O)(=O)N2CCOCC2)cc1 | 7
CCCCN1C(=O)/C(=C(/C#N)C(N)=O)c2ccccc21 | 7
CC1CN/C(=C\C(=O)c2ccc(Cl)cc2)C(=O)N1 (stereo not given) | 6
CCC(C)(C)NC(=O)CCCSc1nc2ccccc2[nH]1 | 13
CNC(=O)CSc1cnc2ccccc2n1 | 15
Cc1ccc(C(=O)C[n+]2cccc(C(N)=O)c2)cc1 | 16
CCOC(=O)c1ccc(S(=O)(=O)NCC(C)(C)N2CCOCC2)cc1 | -3
Cc1ccc(CN2CCN(C/C=C/c3ccc(F)cc3)CC2CCO)o1 (stereo not given) | 11
S=C(N/N=C/c1ccccc1)N1CCOCC1 | 6
Cc1ccnc(NS(=O)(=O)c2ccc(Cl)nc2)c1 | 20
O=C(CN1CCN(c2ccccc2O)CC1)NC(c1ccccc1)c1ccccc1 | 26
CCOC(=O)C1=C(O)C(=O)N(c2ccccc2)C1c1cccc([N+](=O)[O-])c1 (stereo not given) | 14
Cc1cccc(OCC(=O)NNC(=O)C2CCCCC2C(=O)O)c1 (stereo not given) | 7

Overlap with the part before: 3 compounds, followed by the next part.
Compound | Biofilm kill mix
O=C(CN1CCN(c2ccccc2O)CC1)NC(c1ccccc1)c1ccccc1 | 26
CCOC(=O)C1=C(O)C(=O)N(c2ccccc2)C1c1cccc([N+](=O)[O-])c1 (stereo not given) | 14
Cc1cccc(OCC(=O)NNC(=O)C2CCCCC2C(=O)O)c1 (stereo not given) | 7
CC12CCC(=O)N1C(C(=O)OCC(=O)Nc1ccc(Cl)c(Cl)c1)CS2 (stereo not given) | 11
O=C(NNC(=O)c1c(F)cccc1F)c1ccccc1-n1cccc1 | 21
Cc1nc(CSc2nsc(/C=C/N(C)C)c2C#N)cs1 | 19
Cc1ccc(O)c(C(=O)c2cnc3c(c2)COc2ccc(C)cc2-3)c1 | 9
NS(=O)(=O)c1ccc(CNC(=S)NCc2ccc(Cl)cc2)cc1 | 3
CC(=O)c1sc(C(C)(C)C)cc1NC(=O)c1ccccc1C(=O)O | 4
O=C1c2cccc3cccc(c23)C(=O)N1CCN1CCN(CC(O)COc2ccc3ccccc3c2)CC1 (stereo not given) | 10
O/N=C/c1ccc(-c2cc(Cl)ccc2Cl)o1 | 13
Cc1ccc(-n2c(Cn3c(C)nc4ccccc43)n[nH]c2=S)cc1 | 5
CN(C1CCCC1)C1CCN(C(=O)CNC(=O)/C=C/c2ccccc2)CC1 | 11
Cc1cc(C)c(S(=O)(=O)N2CCOC2CNC(=O)C(=O)NCc2ccco2)c(C)c1 (stereo not given) | 17
COc1cc2c(cc1/C=C1/NC(=O)N(CC(=O)Nc3ccccc3)C1=O)OCO2 | 29
Cc1cccc(C)c1NC(=O)C1=C(O)c2sccc2N(C)S1(=O)=O | 17
Cc1nn(C)c(C)c1CN(C)S(=O)(=O)c1ccc(F)cc1 | 15
NC(=O)COC(=O)CNC(=O)c1cc(Cl)cc([N+](=O)[O-])c1 | 13
O=C(CCn1nc(-c2ccc(F)cc2)ccc1=O)NCc1ccccc1 | 5
O=C(CSc1ncccn1)Nc1ccc2c(c1)CCC2 | 30
O=C(C1=C[C@@H](C2CC2)C[C@@H](OCc2ccc(CO)cc2)O1)N1CCN(Cc2ccc3c(c2)OCO3)CC1 | 14
CCC(N=c1cc(-c2ccc(OC)c(OC)c2)oc2ccc(C)cc12)C(=O)O (stereo not given) | -2
CC(C)c1nc(SCC(=O)N2CCc3ccccc32)n[nH]1 | 5

Compound | Biofilm kill mix
CCC(C)(C(=O)NC1CCCCC1)N(C(=O)Cc1cccs1)c1ccccc1 (stereo not given) | 3
C/C(O)=C(/C=NCC(=O)O)C(=O)Nc1nccs1 | 19
CC(C)COC(=O)Nc1nnc(Cc2ccccc2)s1 | 9
CC(NC(=O)CSc1nc2ccc(N)cc2s1)c1ccccc1 (stereo not given) | 16
Cn1c(SCc2ccc(F)cc2)nnc1-c1cnccn1 | 26
O=C(CSc1ccccn1)N1CCc2ccccc21 | 14
O=C1CN(C(=O)CSc2nc3cc(Cl)ccc3c(=O)n2Cc2ccccc2)c2ccccc2N1 | 8
CCCn1c(SCC(=O)Nc2ccc(C)c(S(=O)(=O)N3CCOCC3)c2)n[nH]c1=O | 10
Cc1ccc(C)c(NC(=O)Cn2nc([N+](=O)[O-])c(Br)c2C)c1 | 6
COc1ccccc1NC(=S)N(Cc1cccnc1)Cc1ccccc1Cl | 16
O=C(CSc1nc(-c2ccccc2)nc2ccccc12)Nc1cccc(C(=O)O)c1 | 29
COc1cccc(C(=O)Nc2cc(C)c3c(=O)oc4ccccc4c3n2)c1 | 24
CC(=O)C1=C(S(=O)(=O)c2ccc(C)cc2)CS(=O)(=O)C1 | -2
C/C=C/C=C/C(=O)N1CC2(CC(c3cccc(NC(=O)CCCCC)c3)=NO2)C[C@H]1C(N)=O (stereo not given in full) | 16
Cc1ccc(CNC(=O)Cn2cccc2C(=O)c2ccccc2C)cc1 | 31
Oc1ccc(Br)cc1-c1cc(-c2ccccc2Cl)[nH]n1 | 18
CCOC(=O)N1CCN(C(=O)CN(c2ccccc2OC)S(=O)(=O)c2ccc(OC)cc2)CC1 | 10
COc1cc(CN2CCN(c3cccc(C)c3C)CC2)cc([N+](=O)[O-])c1O | 0
Cc1cc(NC(=O)Nc2cc(F)ccc2F)no1 | 6
Cc1ccc(S(=O)(=O)NCC(=O)OCC(=O)c2cc(C)n(-c3ccccc3)c2C)cc1 | 19

Compound | Biofilm kill mix
N/C(=N\N=C\c1cccc(O)c1)c1nonc1N | 10
CCCCCC(=O)OCCc1c(C)nc2nc[nH]n2c1=O | 15
Cc1ccc(S(=O)(=O)CC(=O)Nc2c(C)n(C)n(-c3ccccc3)c2=O)cc1 | 25
CC(=O)c1cccc(NC2c3ccccc3C(=O)N2Cc2ccco2)c1 (stereo not given) | 16
O=C(Oc1ccc(-c2csnn2)cc1)C1CC1 | 18
CCOC(=O)c1c(-c2ccccc2)csc1NC(=O)CSc1nc(C)cc(C)n1 | 8
C[C@H](CCC(=O)O)[C@H]1CC[C@H]2[C@@H]3C(=O)C[C@@H]4CC(=O)CC[C@]4(C)[C@H]3CC(=O)[C@]12C | -6
